High-throughput results from PubChem BioAssay.
miR-21 reporter = raises the signal of a miR-21 reporter. HeLa miR-21 FLuc reporter, luciferase, 48 h. Potency, µM (doses to about 38.3 µM), inactives show at the top dose reporter change, positive = more light. 340,000 tested, under 10 active. AID 2288; active = well fitted rising curve with a large enough effect; inconclusive = small, poorly fitted or top-dose-only effect; inactive = no such curve, though single readings can be large or run the other way;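 further: % of control where 0% means no effect; miR-21 action dims this reporter so a rising signal means less miR-21 action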
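HeLa miR-21-FLuc reporter line, endogenous miR-21; 2000 cells/well in DMEM/10% FBS; compound titration up to ~40uM final, 48 h, 37 degree Celsius; luciferase detection reagent, 15 min lysis, CCD luminescence.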
GLA inh pH 4.5 = alpha-galactosidase A (human) inhibition, pH 4.5; purified enzyme, 4-MU-alpha-Gal fluorescence, pH 4.5; 230,000 tested, under 10 active; P06280; activity change, negative = inhibition, % at 105 µM; inconclusive = small, poorly fitted or top-dose-only inhibition, or a rising curve; inactive = flat fitted curve, though single readings scatter; no compound was filed as active;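 further: 0% = full activity with enzyme and -100% = basal without enzyme; dose as in the result columns while the protocol names 77 µM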
Target sequence (P06280 whole entry, looked up): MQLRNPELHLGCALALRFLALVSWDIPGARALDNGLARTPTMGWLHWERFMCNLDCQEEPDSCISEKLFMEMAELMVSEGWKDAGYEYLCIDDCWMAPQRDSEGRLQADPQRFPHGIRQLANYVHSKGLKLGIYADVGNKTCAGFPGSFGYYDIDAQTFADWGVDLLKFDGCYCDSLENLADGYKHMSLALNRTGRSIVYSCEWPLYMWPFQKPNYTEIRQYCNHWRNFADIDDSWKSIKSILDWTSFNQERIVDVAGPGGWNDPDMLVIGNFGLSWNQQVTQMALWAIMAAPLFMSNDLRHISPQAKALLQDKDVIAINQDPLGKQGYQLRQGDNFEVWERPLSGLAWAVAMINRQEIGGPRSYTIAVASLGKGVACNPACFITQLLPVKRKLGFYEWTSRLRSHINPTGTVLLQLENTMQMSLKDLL
Rango release inh = inhibitors of RanGTP-induced Rango-importin beta complex dissociation. 340,000 compounds, 0.071% hits. Biochemical FRET Rango-importin beta, RanGTP-induced dissociation. O95149+P62826. Potency, µM (top dose mostly 46.1 µM), without a hit: at the top dose activity change, negative = inhibition; active means falling FRET ratio curve, often poorly fitted, with flat reads before Ran was added; inconclusive means other falling curves, or compound fluorescence or quenching; inactive means flat or rising ratio curve;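 further: potency means the concentration at half of the fitted maximal effect; % of control where 0% means no effect; nearly all actives have a fitted effect of over 45% in size; -100% = wells without RanGTP and RCC1; the record marks most hits as doubtful in a second field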
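FRET read at 45 min, room temperature: inhibitors block the CFP/YFP signal rise when RanGTP (0.6 uM Ran, 2 mM GTP, 0.2 uM RCC1) frees Rango (0.1 uM) from importin beta (0.25 uM). Pre-read after 5 min compound exposure flags interference.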
Rango-impB inh = prevents formation of the Rango-importin beta complex. Q14974. Rango CFP/YFP FRET sensor + importin beta, 45 min. Potency, µM (highest dose often 92.2 µM), inactives show at the top dose inhibition of complex formation. 340,000 compounds, 0.031% hits. AID 540263; active = rising FRET ratio curve, often small or poorly fitted; inconclusive = mostly compound fluorescence or quenching in the first reads; inactive = flat curves in all reads;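 further: potency means the concentration at half of the fitted maximal effect; 0% = DMSO wells and 100% = buffer wells lacking importin beta; nearly all actives have a fitted effect of over 15% in size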
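Inhibition scored from the CFP 486 nm/YFP 530 nm FRET ratio 45 min after adding 0.125 microM importin beta to 50 nM Rango biosensor preincubated 5 min with compound (room temperature, PBS with DTT, Tween-20, BSA). No-importin wells as positive control.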
Starred values were filed as active, the others as inactive; ? = inconclusive; . = no result given. These rows are one share of the data, so the mix of outcomes need not match the whole.

miR-21 reporter	Rango-impB inh	Rango release inh	GLA inh pH 4.5	SMILES
-4%	?	-13%	-19	O=C(Nc1ccc(N2C(=O)C3C4C=CC(C4)C3C2=O)cc1)Nc1cccnc1 (stereo not drawn)
-19%	-0.2%	34%	-1	O=C(CSc1n[nH]c(=O)n1C1CC1)c1ccc(F)cc1
.	-3.0%	-4%	.	CCCCn1c(N)c(N(CCOC)C(=O)c2cc(S(=O)(=O)N3CCCCC3)ccc2C)c(=O)[nH]c1=O
6%	-3.1%	-15%	4	CCOc1cc(CNCc2cccs2)ccc1OCC(=O)NC(C)(C)C
28%	-1.5%	-8%	.	COc1ccc(CNC(=O)Cc2ccc(-c3ccccc3)cc2)cc1OC
6%	0.2%	-20%	-2	O=C(COC(=O)c1ccc(F)cc1)Nc1cc(S(=O)(=O)N2CCOCC2)ccc1N1CCCC1
-51%	0.1%	6%	18	CC1(CCc2ccccc2)NC(=S)N(c2ccc(Cl)cc2)N1 (stereo not drawn)
-21%	5.1%	8%	1	O=C(O)c1ccccc1COc1ccccc1Cl
-6%	0.3%	-9%	0	CCC1SC2=NC(C)=C(C(=O)OC)C(c3ccc(C(=O)OC)cc3)N2C1=O (stereo not drawn)
.	1.2%	7%	.	COc1ccc(Br)cc1/C=C/C(=O)OCC(=O)NCCc1ccc(S(N)(=O)=O)cc1
1%	0.4%	6%	.	COc1cc(C2NC(=O)CCC2[N+](=O)[O-])cc(Br)c1OC (stereo not drawn)
-4%	0.5%	-6%	-6	CCOC(=O)c1c(NC(=O)c2cccs2)sc2c1CCN(C(=O)OCC)C2
-55%	4.3%	-19%	-6	COc1ccc(CNCC(O)COc2ccc(C)cc2[N+](=O)[O-])cc1 (stereo not drawn)
-16%	-0.5%	5%	10	Cc1cccc(-n2c(-c3csc(C(C)C)c3)n[nH]c2=S)c1
-8%	-0.2%	-14%	0	COc1ccc2c(CC(=O)NC3CCCc4ccccc43)coc2c1 (stereo not drawn)
-1%	2.4%	15%	-2	CCCn1c(SCC(=O)NCc2ccc(Cl)cc2)n[nH]c1=O
-4%	2.1%	7%	6	CC(=O)NCCCc1nc2ccccc2n1Cc1ccccc1C
-21%	-0.1%	17%	-7	CC(=O)Nc1ccc(Oc2ccccc2)cc1
.	0.3%	1%	.	COc1ccc(C(=O)COC(=O)[C@@H](NS(=O)(=O)c2ccccc2)C(C)C)cc1
23%	1.9%	1%	0	CCn1c2c(c(=N)c3c1CCC3)CCCC2
-3%	-0.4%	1%	1	O=C(CCN1C(=O)C2C3C=CC(C4CC34)C2C1=O)Oc1ccccc1 (stereo not drawn)
-5%	-2.6%	?	.	O=C(Nc1oc2ccccc2c(=O)c1-c1ccc(Br)cc1)c1ccco1
-3%	-2.9%	-10%	2	COc1cc(CC(NC(C)=O)C(=O)NC2CCN(c3c(Cc4ccccc4)c(C)nc4ncnn34)CC2)cc(OC)c1 (stereo not drawn)
-2%	-0.5%	3%	.	CC(=O)c1ccc(OC(=O)c2nc(-c3ccccc3)oc2C)cc1
-13%	-3.2%	10%	.	Cc1nc2c(cc1NC(=O)c1ccccc1)nc(C)n2Cc1ccccc1
-2%	0.1%	0%	-15	O=C(NC1CCCCC1)C(c1cccs1)N(C(=O)Cc1c[nH]c2ccccc12)c1ccc(F)cc1 (stereo not drawn)
8%	-0.6%	-1%	-1	c1ccc(Oc2nc(-c3cccnc3)nc3ccccc23)cc1
-4%	-0.5%	1%	.	Cc1cc(C)c(NC(=O)c2cccc3c2C(=O)N(C2CCCCC2)C3)c(C)c1
0%	-0.2%	7%	6	O=C(CSc1nnc(-c2ccncc2)o1)NCc1ccccc1Cl
.	1.0%	1%	.	CCOC(=O)[C@@H]1[C@H]2COc3cc(OC)ccc3[C@@H]2N2C(=O)N(c3ccccc3)C(=O)[C@@]12C
-5%	-0.7%	-18%	3	COc1cc(C)nc(-c2csc(C)n2)n1
1%	-0.5%	11%	0	Nc1ccccc1OCP(=O)(c1ccccc1)c1ccccc1
-1%	0.5%	9%	-5	CC(=O)Nc1ccc(S(=O)(=O)N2C3CCCC2CC(NC(=O)C2CCCCC2)C3)cc1 (stereo not drawn)
-11%	2.4%	10%	7	Nc1c(Br)cc(Br)c(N2CCCC2=O)c1Br
4%	-0.6%	-13%	-5	CC(=O)Nc1ccc(NC(C)=O)c(NC2OCC(O)C(O)C2O)c1 (stereo not drawn)
0%	2.6%	-1%	6	COc1ccccc1CNC(=O)C1CCCN(S(C)(=O)=O)C1 (stereo not drawn)
-1%	-3.7%	4%	7	O=C(COC(=O)c1ccccn1)NCc1ccccc1Cl
3%	2.8%	1%	-11	CCCS(=O)(=O)c1c(S(=O)(=O)CCC)c2c(N)cccn2c1C(=O)c1ccc(F)cc1
1%	-0.8%	19%	-3	Cc1noc(C)c1S(=O)(=O)N1CCC(C(=O)N2CCN(C(=O)c3ccco3)CC2)CC1
20%	0.2%	16%	-6	CCN(CC)S(=O)(=O)c1ccc(N2CCN(S(=O)(=O)c3ccc4c(c3)OCCO4)CC2)nc1
.	?	-6%	.	O=C(Cc1ccc(NC(=O)C2CCN(C(=O)c3ccccc3)CC2)cc1)Nc1ccc(C(=O)N2CCOCC2)cc1
.	0.7%	15%	.	CCOC(=O)C1=C(COC(=O)C(C)(C)Oc2ccc(Cl)cc2)NC(=O)NC1C (stereo not drawn)
10%	?	-7%	.	COc1ccc(-c2cn3c(C)c(C(=O)N4CCc5ccccc5C4)sc3n2)cc1
-3%	-2.7%	11%	7	Cc1c(NC(=S)NC(=O)CCc2ccccc2)c(=O)n(-c2ccccc2)n1C
.	5.7%	1%	.	CC(C)c1ccc(CSc2ccc(S(=O)(=O)N3CCOCC3)cn2)cc1
-7%	-0.2%	0%	13	CCC1CCCCN1CCCNC(=O)c1ccc2c(=O)n(Cc3ccc(OC)cc3)c(=O)[nH]c2c1 (stereo not drawn)
-14%	1.2%	1%	-10	O=C(NC(=S)NNC(=O)c1ccccc1F)c1cccnc1
-42%	-2.4%	-1%	4	N/C(=N\OC(=O)c1ccco1)c1cccnc1
0%	4.3%	-2%	.	Cc1ccc(NC2CCCN(C(=O)CCC(=O)c3ccccc3)C2)cc1C (stereo not drawn)
12%	1.3%	1%	0	COc1ccc(/C=N/NC(=O)C2c3ccccc3-c3ccccc32)cc1
-1%	5.8%	2%	-13	O=C(CCN1CCc2ccccc2C1)Nc1ccc(F)c(F)c1
.	1.4%	-13%	.	O=C(O)c1cccc(COc2cccc3ccccc23)c1
-3%	-1.0%	3%	-3	Cc1cc(C)n(CCC(=O)N/N=C/c2cccc([N+](=O)[O-])c2)n1
1%	?	1%	3	CCOC(=O)c1c(C)cccc1OCC(N)=O
-5%	-4.4%	7%	.	COc1ccccc1-c1cc(C(=O)NCCCN2CCOCC2)no1
0%	0.9%	-8%	-4	O=C(C1CCCO1)N1CCN(C(=S)NC2CC2)CC1 (stereo not drawn)
2%	2.0%	17%	-2	CN(C)CCNC(=O)c1scc2c1CCCC2
-21%	-4.8%	8%	.	CCCCn1nc(NS(=O)(=O)c2cccc3nonc23)c2cc3cccc(C)c3nc21
-44%	-0.6%	14%	4	COc1ccc(-c2noc(Cc3ccccc3OC)n2)cc1
-7%	3.9%	9%	1	Cc1ccc(C(C(=O)NC2CCCCC2)N(C(=O)c2csnn2)C2CC2)o1 (stereo not drawn)

Following part.
miR-21 reporter	Rango-impB inh	Rango release inh	GLA inh pH 4.5	SMILES
-5%	-3.6%	5%	2	Cc1ccc(C)c(Nc2nc3c(S(=O)(=O)c4ccccc4)nnn3c3ccccc23)c1
-2%	-0.8%	6%	.	Cc1cc(C)cc(C(=O)NCCCN2CCOCC2)c1
-67%	?	12µM*	.	Cc1cccc(NC(=O)c2cc3ccccc3oc2=O)c1
0%	-0.7%	-8%	13	CN(C)NC(=S)NC1CCS(=O)(=O)C1 (stereo not drawn)
-13%	-2.9%	-1%	-6	N#C/C(=C/N1CCOCC1)c1ccccc1
-22%	0.9%	2%	-2	COCCn1nnnc1C(c1ccc2ncccc2c1)N1CCN(c2ccccc2F)CC1 (stereo not drawn)
1%	-3.7%	?	5	COc1cc(-c2nnc(SCC#CCO)o2)cc(OC)c1OC
-15%	1.6%	11%	.	Cc1ccnc(NC(=O)CNC(=O)c2ccccc2Br)c1
.	-4.8%	5%	.	CN(C(=O)c1cccc(NC(=O)Cc2ccc([N+](=O)[O-])cc2)c1)C1CCCCC1
-11%	5.5%	13%	12	O=C(N/N=C1\CC2CC=CC12)c1ccc(COc2ccccc2)cc1 (stereo not drawn)
.	-0.3%	8%	.	Cc1ccccc1N(CC(=O)N1CCCC1)S(=O)(=O)c1ccc(Cl)cc1
-9%	-2.9%	-17%	0	C1CCC(C23CC4CC(CC(C4)C2)C3)NC1 (stereo not drawn)
-7%	2.7%	-12%	.	COc1ccc(C(=O)NCCCNC(=O)c2cnccn2)cc1Br
2%	.	.	3	Cn1c(=O)c2c(SCC(=O)N3CCOCC3)nc(CC(C)(C)C)nc2n(C)c1=O
-52%	-1.7%	-3%	2	Cc1ccc(C(=O)NC2CCCCNC2=O)cc1C (stereo not drawn)
-6%	0.3%	12%	4	Cc1cc(=O)n2c(c1C#N)SC1CCCCC12O (stereo not drawn)
0%	.	.	4	COc1ccc(/C=N/c2sc3c(c2C#N)CCN(Cc2ccccc2)C3)c(O)c1
10%	-0.2%	-1%	-4	O=C(Cc1ccc([N+](=O)[O-])cc1)Nc1cc(C(F)(F)F)cc(C(F)(F)F)c1
1%	4.1%	25%	.	Cc1ccc(-c2nc(CS(=O)CC(=O)NCc3ccco3)c(C)o2)cc1 (stereo not drawn)
.	3.0%	-4%	.	O=C(COC(=O)c1cccs1)Nc1cccc(Cl)c1
-11%	-0.1%	-8%	0	Cc1cc(/C=N\NC(=O)CC(=O)NC2CCCCC2)c(C)n1-c1cccc(Cl)c1Cl
-41%	-4.6%	-1%	-9	NC(=O)C1CC(=O)N(c2ccc(OCc3ccccc3Cl)cc2)C1 (stereo not drawn)
-6%	1.5%	-8%	-3	CC1=CCC2C(=O)N(c3ccccc3OC(=O)c3ccccc3F)C(=O)C2C1 (stereo not drawn)
16%	1.1%	16%	.	CCOc1ccc(N(C)S(=O)(=O)c2ccc(-c3cc(C)no3)s2)cc1
3%	5.2%	-20%	-6	CCCCCC(=O)OC(CN1CCCCC1)CN1CCCC1=O (stereo not drawn)
4%	-4.7%	4%	7	Cc1ccc(S(=O)(=O)NCC(=O)NCC(=O)OC(C(=O)NC(N)=O)C(C)C)cc1C (stereo not drawn)
5%	?	-3%	-14	CN(C)Cc1c(O)ccc2oc(Cc3ccccc3)cc12
-3%	1.1%	1%	-11	O=C(COc1ccccc1-c1ccccc1)Nc1ccc(S(=O)(=O)NCc2ccco2)cc1
-1%	6.5%	0%	1	CCOC(=O)Nc1cc(C)c(Cl)cc1OC
2%	0.6%	-14%	5	CSc1ccc(CN(C)CC(=O)NC(C)c2ccccc2)cc1 (stereo not drawn)
-7%	.	.	3	O=C(COc1cccc2ccccc12)Nc1cc(S(=O)(=O)N2CCOCC2)ccc1N1CCOCC1
.	2.9%	-2%	.	COc1ccc(/C=C/C(=O)OCC(=O)NC2CCCCC2C)c(OC)c1 (stereo not drawn)

Part of the list above, tab-delimited.
Molecule	miR-21 reporter	Rango-impB inh	Rango release inh	GLA inh pH 4.5
CN(C)Cc1c(O)ccc2oc(Cc3ccccc3)cc12	5%	?	-3%	-14
O=C(COc1ccccc1-c1ccccc1)Nc1ccc(S(=O)(=O)NCc2ccco2)cc1	-3%	1.1%	1%	-11
CCOC(=O)Nc1cc(C)c(Cl)cc1OC	-1%	6.5%	0%	1
CSc1ccc(CN(C)CC(=O)NC(C)c2ccccc2)cc1 (stereo not drawn)	2%	0.6%	-14%	5
O=C(COc1cccc2ccccc12)Nc1cc(S(=O)(=O)N2CCOCC2)ccc1N1CCOCC1	-7%	.	.	3
COc1ccc(/C=C/C(=O)OCC(=O)NC2CCCCC2C)c(OC)c1 (stereo not drawn)	.	2.9%	-2%	.
